GIRK2 act – activators of human GIRK2 potassium channels | G protein-activated inward rectifier potassium channel 2 (Homo sapiens), P48051 | HEK293-GIRK2 thallium flux, Thallos fluorescence | calls only for hits at 25 µM | hit rate 0.05% among 63,000 | AID 1259325, 2017;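 active means among the strongest 0.2% of first-round signals and kept after retests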;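 further: first round at about 10 µM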
Target sequence (P48051 whole entry, looked up): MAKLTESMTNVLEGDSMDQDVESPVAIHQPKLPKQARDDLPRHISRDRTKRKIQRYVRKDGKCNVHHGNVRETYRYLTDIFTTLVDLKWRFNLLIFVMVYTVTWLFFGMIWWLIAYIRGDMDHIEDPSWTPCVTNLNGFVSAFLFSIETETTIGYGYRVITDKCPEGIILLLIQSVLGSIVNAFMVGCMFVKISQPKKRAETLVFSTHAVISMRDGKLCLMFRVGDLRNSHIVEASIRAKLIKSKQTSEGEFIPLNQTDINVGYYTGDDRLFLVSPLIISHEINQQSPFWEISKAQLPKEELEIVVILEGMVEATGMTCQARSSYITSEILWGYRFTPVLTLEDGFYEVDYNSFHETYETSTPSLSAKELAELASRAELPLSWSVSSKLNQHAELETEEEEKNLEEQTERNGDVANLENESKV
Calls only; i = inactive. These rows are one share of the data; count on the stated rates, not on these rows.

SMILES	GIRK2 act
Cc1cc(C(O)CCNS(=O)(=O)c2ccc(F)cc2C)c(C)o1 (centres undefined)	i
O=C(Cn1c(-c2cccnc2)nc2ccccc21)N1CCCc2ccccc21	i
CCOC(=O)c1c(NC(=O)CSc2nnc(C)s2)sc(C)c1C	i
CCOc1ccc(N(C)S(=O)(=O)c2ccsc2C(=O)NC(C)c2ccc(F)cc2)cc1 (centres undefined)	i
CC(C)C(NC(=O)c1ccc(Br)cc1)C(=O)NC1=NCCS1 (centres undefined)	i
COc1ccc(C(=O)Nc2ccc3c(c2)N(C(=O)C2CC2)CCC3)cc1OC	i
COc1cccc(S(=O)(=O)NCc2ccc(C(=O)N3CCN(c4ccccc4F)CC3)cc2)c1	i
Cn1c(=O)[nH]c(=O)c2c1nc(NCCCN)n2CCCOc1ccccc1	i
O=C(C1COc2ccccc2O1)N1CCC2(CC1)OCCCO2 (centres undefined)	i
O=C(c1cnc2ccccc2n1)N1CCN(c2cc(-c3ccccc3)ncn2)CC1	i
Cc1ccc(C(=O)NC2=N/C(=C(/C#N)C(=O)NC3CCCC3)c3ccccc32)cc1	i
O=C(Nc1cc(C(F)(F)F)ccc1Cl)c1cccc(-n2cnnn2)c1	i
O=C(Nc1nc(C(=O)N2CCN(c3cccc(C(F)(F)F)c3)CC2)co1)C1CC1	i
O=C(CN1CC(c2nc(-c3cnccn3)no2)C1)Nc1nccs1	i
CC(=O)N1CCc2c(sc(NC(=O)c3ccno3)c2-c2nc3ccccc3s2)C1	i
COc1cccc(NC(=O)Nc2nnc(-c3ccc(Br)o3)o2)c1	i
ClC1(Cl)CC1CSc1nc2ccccc2[nH]1 (centres undefined)	i
COc1ccc(/C=C2\Oc3c(ccc4c3CN(Cc3ccccn3)CO4)C2=O)c(OC)c1	i
CN(C)CCNC(=O)c1cc2n(n1)CCCO2	i
COc1cc(C2C(C(C)=O)=C(C)Nc3ncnn32)ccc1OC(F)F (centres undefined)	i
Cn1nnn(-c2ccc(NC(=O)c3c[nH]c4ccccc34)cc2)c1=O	i
Cc1ccc(NC(=O)CSc2nnc3ccc(C(=O)Nc4cccc(F)c4)cn23)c(C)c1	i
Cc1nc(-c2ccccc2)n2nc(NCCCN3CCOCC3)ncc12	i
CCc1cc2c(CN3CCC4(CC3)OCCO4)cc(=O)oc2cc1O	i
Cc1ccc(Cl)cc1NC(=O)CSc1cc(N2CCCCC2)ncn1	i
COc1ccc(-c2cc3c(=O)n(CC(=O)Nc4ccc(Oc5ccccc5)cc4)ccn3n2)cc1OC	i
COc1cc(-c2nnc(NC(=O)c3ccc(OC(C)C)cc3)o2)cc(OC)c1OC	i
O=C(NCCCn1ccnc1-c1ccccc1)c1ccc(Cl)c(Cl)c1	i
COc1ccc(S(=O)(=O)N2CCCc3cc(NC(=O)c4ccc(C)c(C)c4)ccc32)cc1	i
COc1ccc(Cl)cc1NC(=O)CSc1nnc(C)c2cnn(-c3ccc(F)cc3)c12	i
O=C(Nc1ccccc1)OC1CCCC(NC(=O)C2CC(=O)N(c3ccc(F)cc3)C2)C1 (centres undefined)	i
CCOc1ccccc1C(=O)N1CCN(Cc2nnnn2-c2cccc(F)c2)CC1	i
CCOC(=O)c1ccc(Nc2nc(C)cc(N)n2)cc1	i
C[C@@H]1CC[C@]2(C(=O)O)CC[C@]3(C)C(=CCC4[C@@]5(C)CC[C@H](O)[C@](C)(C(=O)O)C5CC[C@]43C)C2[C@]1(C)O (some centres undefined)	i
Cc1cc(-c2nnc(NC(=O)c3sc4ccccc4c3Cl)o2)c(C)o1	i
COc1cc2[nH]c3c(=O)n(CC(=O)N4CCN(c5cccc(C)c5C)CC4)cnc3c2cc1OC	i
Cc1cc(CCNS(=O)(=O)c2cc(C)c(Cl)cc2Cl)on1	i
Cc1cc(C)n(CCN2CCN(C(=O)CSC3CCCC3)CC2)n1	i
CCOc1cc(NC(=O)Nc2cc(Cl)ccc2OC)ncn1	i
CC1CC(C)CN(c2nccn3c(=O)n(CC(=O)NCc4ccc(F)cc4)nc23)C1 (centres undefined)	i
Cc1ccc(C)c2sc(N(CCCn3ccnc3)C(=O)c3ccc4c(c3)OCCO4)nc12	i
COc1ccc(-c2nc(SCC(=O)NCC3CCCO3)c(-c3ccccc3)[nH]2)cc1 (centres undefined)	i
COc1ccccc1N1CCN(c2nccnc2SCC(=O)Nc2ccccc2F)CC1	i
Cc1cc(NC(=O)CSc2nnc(N3CCN(C(=O)c4ccco4)CC3)s2)no1	i
Cc1nc(Nc2ccc(NC(=O)Nc3ccc4c(c3)OCCO4)cc2)cc(-n2ccnc2)n1	i
Cc1cc(C)c(NC(=O)C2COc3ccccc3O2)c(C)c1 (centres undefined)	i
O=C(NCC1CCN(C(=O)c2ccoc2)CC1)C(=O)Nc1ccc2c(c1)OCO2	i
O=C(Nc1ccc(-n2nnc(C(=O)NCC(F)(F)F)n2)cc1)C(=O)c1c[nH]c2ccccc12	i
Cc1nnc2c(S(=O)(=O)N(Cc3ccc(F)cc3)c3ccc(Cl)cc3)cccn12	i
CCc1cccc(C)c1NC(=O)Cn1nc(-c2cccs2)c2sc(N3CCCC3)nc2c1=O	i
(cont.)
SMILES	GIRK2 act
O=C(NCC1CCCO1)c1coc(NC(=O)c2cnccn2)n1 (centres undefined)	i
CCCCc1ccc(S(=O)(=O)c2cnc(SCC(=O)Nc3cccc(C(C)=O)c3)[nH]c2=O)cc1	i
O=S(=O)(CCc1ccccc1)NCCC(O)c1ccccc1 (centres undefined)	i
CCn1cnc2c(-c3ccccc3)cn(CC(=O)Nc3cccc(OC)c3)c2c1=O	i
C/C=C/Cn1c(=O)c2c(nc3n(CC(=O)OCC)c(C)c(C)n23)n(C)c1=O	i
COc1cccc(-n2c(=S)sc3c(=O)[nH]c(SCC(=O)NC4CCCC4)nc32)c1	i
O=C(NC1CCN(Cc2ccccc2)CC1)c1cn(-c2cccc(Cl)c2)nn1	i
CSc1ccccc1NC(=O)C(=O)NCC1CCN(C(=O)c2ccoc2)CC1	i
Cc1noc(-c2ccc(NC(=O)Nc3ccccc3C(F)(F)F)cc2)n1	i
COc1ccc(S(N)(=O)=O)cc1N(C)S(C)(=O)=O	i
Cc1ccc(NC(=O)Cn2cc(-c3nc(-c4ccc(Cl)cc4)no3)ccc2=O)cc1C	i
CCC(O)c1nc2ccccc2n1CCOc1cccc(OC)c1 (centres undefined)	i
COc1ccc(-c2cc3nc(C)cc(NC(C)C)n3n2)cc1OC	i
NC(=O)CSc1nnc(N2CCN(C(=O)c3ccc(-c4ccccc4)cc3)CC2)s1	i
O=S(=O)(NCCOc1ccc2c(c1)OCO2)c1cccc(Cl)c1	i
Cc1nc(SCC(=O)c2cccc(Cl)c2)nc2c1CCCC2	i
COc1cc(Cn2nc(-c3ccc(F)cc3)c3sc(N4CCCC4)nc3c2=O)cc(OC)c1	i
CN1CCC(CNC(=O)CCSc2ccccc2)CC1	i
COc1ccc(F)cc1S(=O)(=O)N1CC(Oc2nc3c(Cl)cccc3s2)C1	i
Cc1ccc(=O)n(CC(=O)Nc2ccc(C(N)=O)cc2)n1	i
O=C(NCC1(c2ccccc2)CCOCC1)Nc1ccccc1C(F)(F)F	i
COCCn1nnn(-c2ccc(NC(=O)COc3ccccc3)cc2)c1=O	i
CCS(=O)(=O)c1ncc(Cl)c(C(=O)Nc2ccc(Oc3ccccc3)cc2)n1	i
O=C(NCc1cccc(Br)c1)C1CCN(c2cc(Oc3ccccc3)ncn2)CC1	i
CCOc1ccc(-c2ncncc2-c2ccc(OC)c(OC)c2)c(O)c1	i
O=C(CSc1cc(-n2cccn2)ncn1)Nc1ccc(Oc2ccccc2)cc1	i
O=C(Cn1nc2nc(N3CCOCC3)ccn2c1=O)Nc1ccc(F)c(F)c1	i
O=C(CCn1ccc(=O)[nH]c1=O)N1CC(c2nc(Cc3ccccc3)no2)C1	i
CCCn1c(=O)c2c(nc3n(CCc4ccc(OC)c(OC)c4)c(C)c(C)n23)n(C)c1=O	i
CC(O)c1nc2ccccc2n1CCCOc1ccc(Cl)cc1 (centres undefined)	i

Some of the entries so far, with each value named.
> CCOc1ccc(-c2ncncc2-c2ccc(OC)c(OC)c2)c(O)c1
  GIRK2 act: i

> O=C(CSc1cc(-n2cccn2)ncn1)Nc1ccc(Oc2ccccc2)cc1
  GIRK2 act: i

Remaining list, next part.
SMILES	GIRK2 act
O=C(Nc1ccccn1)C1CCN(C(=O)NCc2cccs2)CC1	i
O=C(c1ccco1)N1CCN(CC(O)c2cccs2)CC1 (centres undefined)	i
COc1ccc(Cl)cc1C(=O)NCCNc1ccc(Nc2cc(C)ccn2)nn1	i
Cc1cc(=O)[nH]c(NCCCn2ccnc2)n1	i
Cc1c(C(=O)Nc2ccccc2)nnn1-c1ccccc1Cl	i
O=C(O)c1ccc(CNS(=O)(=O)c2ccc(Cl)c(C(F)(F)F)c2)cc1	i
COc1ccc(OC)c(S(=O)(=O)N2CCC(c3nnc(-c4ccco4)s3)CC2)c1	i
Cc1ccc2c(c1)N(Cc1nc(C3CC3)no1)N=C(C(=O)N1CCCCCC1)S2(=O)=O	i
Cc1cc(OCC(=O)NCCOc2cc(N3CCCC3)ncn2)ccc1Cl	i
COc1ccc(-c2cc3nc(C)cc(N4CCCCC4)n3n2)cc1OC	i
CCOc1ccccc1-c1noc(Cn2c(=O)n(CCCOC)c(=O)c3ccccc32)n1	i
COc1cc(C)c(C)cc1S(=O)(=O)N(Cc1cccs1)Cc1cccn1C	i
CC(C)(Oc1ccc(Cl)cc1)C(=O)NCCN1CCN(C(=O)c2cccs2)CC1	i
O=C(NCC(O)c1ccc2c(c1)CCO2)Nc1ccc(Cl)c(Cl)c1 (centres undefined)	i
COc1ccc(/C=C2\Oc3c(ccc(OC)c3C)C2=O)cc1OC	i
Cc1c(NC(=O)c2ccc(-n3cccn3)nn2)c(=O)n(-c2ccccc2)n1C	i
Clc1ccc(COC(Cn2ccnc2)c2ccc(Cl)cc2Cl)cc1 (centres undefined)	i
O=C(c1cc(Cl)ccc1Cl)N1CCN(c2ccc3nncn3n2)CC1	i
Cc1c(O)ccc2c(CN3CCN(CCO)CC3)cc(=O)oc12	i
COc1ccccc1-c1coc2cc(OC(=O)c3cccc([N+](=O)[O-])c3)ccc2c1=O	i
COc1ncc(NC(=O)C(C)(C)C)cn1	i
Cc1ccc(S(=O)(=O)N(C)c2ccsc2C(=O)N2CCCCCC2)cc1	i
O=S(=O)(NCC1(c2cccs2)CCCC1)C1CC1	i
CCC(C(=O)NCc1ccc(C)cc1)n1cc(-c2nc(-c3cnccn3)no2)ccc1=O (centres undefined)	i
COc1ccccc1N1CCN(c2nccnc2SCC(=O)Nc2ccc(C(C)=O)cc2)CC1	i
COc1ccccc1-n1c(C)cn2c3c(=O)n(CCN4CCCCC4)c(=O)n(C)c3nc12	i
Cc1cccc(N2CCN(C(=O)c3snc(-c4ccccn4)c3N)CC2)c1C	i
Cc1csc(SCC2CCN(C(=O)C3CC=CCC3)CC2)n1 (centres undefined)	i
COc1ccc(NC(=O)CSc2n[nH]c(=O)c3cc(-c4ccc(F)cc4)nn23)c(OC)c1	i
Cc1cc(C)n(-c2cc(NC(=O)/C=C/c3ccco3)ncn2)n1	i
Cc1cccc2sc(NC(=O)CCCS(=O)(=O)Cc3ccccc3)nc12	i
Cc1cc(C)n2nc(Nc3ccccc3)nc2n1	i
COc1cccc(OCCn2c(C3CC(=O)N(c4ccccc4C)C3)nc3ccccc32)c1 (centres undefined)	i
COc1ccc(CNC(=O)CCCCCn2c(SCC#N)nc3cc4c(cc3c2=O)OCO4)cc1	i
Cn1c(C(F)(F)F)nn(CCNC(=O)NCc2ccccc2)c1=O	i
Cc1cc(C)n(-c2nc(CCNC(=O)Cn3cnc4ccccc43)cs2)n1	i
O=C(c1ccc(C(F)(F)F)cc1)N1CCC(CSC2=NCCS2)CC1	i
COC(=O)C1CCN(C(=O)Cc2c(C)nc(SC(C)c3ccccc3)[nH]c2=O)CC1 (centres undefined)	i
COCCn1c(-c2ccccc2F)nc2c(c(=O)c3ccccc3n2C)c1=O	i
Cc1ccc(-c2cc(C(=O)N3CCC(NC(=O)c4ccc5c(c4)OCO5)CC3)[nH]n2)c(C)c1	i
COc1ccc(OC)c(-c2cc(C(=O)NC3CC3)[nH]n2)c1	i
COc1ccc(S(=O)(=O)Nc2ccc3c(c2)N(C(=O)C2CC2)CCC3)cc1	i
Cc1ccccc1-c1cc2c(=O)n(Cc3nc(-c4ccc(Cl)cc4)no3)ccn2n1	i
O=C(c1csc(-c2ccccc2)n1)N1CCN(C(=O)C2CC2c2ccc(F)cc2)CC1 (centres undefined)	i
CCSc1ccccc1C(=O)N1CCN(Cc2nc(C3CC3)cs2)CC1	i
CSc1cccc(NS(=O)(=O)C2CC2)c1	i
Cc1cc[n+](Cc2csc(C)n2)cc1	i
O=C1CCCN1c1cccc(NS(=O)(=O)c2ccc(N3CCCCS3(=O)=O)cc2)c1	i
COc1cc(Cl)c(C)cc1NC(=O)CSc1ccc(-c2nc(C3CC3)no2)cn1	i
CS(=O)(=O)N1CCCc2cc(NS(=O)(=O)c3ccc4ccccc4c3)ccc21	i

Structures from the list above containing an NH in an aromatic ring:
SMILES	GIRK2 act
Cn1c(=O)[nH]c(=O)c2c1nc(NCCCN)n2CCCOc1ccccc1	i
ClC1(Cl)CC1CSc1nc2ccccc2[nH]1 (centres undefined)	i
Cn1nnn(-c2ccc(NC(=O)c3c[nH]c4ccccc34)cc2)c1=O	i
COc1cc2[nH]c3c(=O)n(CC(=O)N4CCN(c5cccc(C)c5C)CC4)cnc3c2cc1OC	i
COc1ccc(-c2nc(SCC(=O)NCC3CCCO3)c(-c3ccccc3)[nH]2)cc1 (centres undefined)	i
O=C(Nc1ccc(-n2nnc(C(=O)NCC(F)(F)F)n2)cc1)C(=O)c1c[nH]c2ccccc12	i
CCCCc1ccc(S(=O)(=O)c2cnc(SCC(=O)Nc3cccc(C(C)=O)c3)[nH]c2=O)cc1	i
COc1cccc(-n2c(=S)sc3c(=O)[nH]c(SCC(=O)NC4CCCC4)nc32)c1	i
O=C(CCn1ccc(=O)[nH]c1=O)N1CC(c2nc(Cc3ccccc3)no2)C1	i
Cc1cc(=O)[nH]c(NCCCn2ccnc2)n1	i
COc1ccc(NC(=O)CSc2n[nH]c(=O)c3cc(-c4ccc(F)cc4)nn23)c(OC)c1	i
COC(=O)C1CCN(C(=O)Cc2c(C)nc(SC(C)c3ccccc3)[nH]c2=O)CC1 (centres undefined)	i
Cc1ccc(-c2cc(C(=O)N3CCC(NC(=O)c4ccc5c(c4)OCO5)CC3)[nH]n2)c(C)c1	i
COc1ccc(OC)c(-c2cc(C(=O)NC3CC3)[nH]n2)c1	i

Source: PubChem (Vanderbilt University)
